FGF22 binding: binders of human FGF22 protein, primary screen, FGF22 synaptogenesis inhibitor project, biophysical, thermal shift, single point; hit rate 1.5% among 340,000; Fibroblast growth factor 22 (Homo sapiens), Q9HCT0; calls only at 9.99 µM; AID 651658, 2012; recombinant FGF22 thermal shift, SYPRO orange fluorescence; percent of sucrose octasulfate shift, DMSO zero;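 active = melting point raised past a set limit in the mean and every replicate; three in four hits are not shown here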
Target sequence (Q9HCT0 whole entry, looked up): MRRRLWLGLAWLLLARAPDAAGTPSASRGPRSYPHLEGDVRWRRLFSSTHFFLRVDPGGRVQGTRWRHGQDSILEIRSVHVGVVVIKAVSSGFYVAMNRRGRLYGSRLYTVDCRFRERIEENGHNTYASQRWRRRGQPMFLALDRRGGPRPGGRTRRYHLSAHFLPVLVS
AF4-AF9 inh: inhibitors of AF4 peptide binding to AF9, primary screen, biochemical, AlphaScreen, biotin-AF4 peptide, FLAG-AF9, single point; inhibition, % at 10 µM; hit rate 0.47% among 350,000;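 active = every replicate reaching a set inhibition limit, whatever the replicate mean, cut at about 25% in these data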;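 note: 0% = plate neutral control median and 100% = total signal loss; the record names both 10 and 1 µM as test concentration; the first replicate is given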
Target sequence (P42568 whole entry, looked up): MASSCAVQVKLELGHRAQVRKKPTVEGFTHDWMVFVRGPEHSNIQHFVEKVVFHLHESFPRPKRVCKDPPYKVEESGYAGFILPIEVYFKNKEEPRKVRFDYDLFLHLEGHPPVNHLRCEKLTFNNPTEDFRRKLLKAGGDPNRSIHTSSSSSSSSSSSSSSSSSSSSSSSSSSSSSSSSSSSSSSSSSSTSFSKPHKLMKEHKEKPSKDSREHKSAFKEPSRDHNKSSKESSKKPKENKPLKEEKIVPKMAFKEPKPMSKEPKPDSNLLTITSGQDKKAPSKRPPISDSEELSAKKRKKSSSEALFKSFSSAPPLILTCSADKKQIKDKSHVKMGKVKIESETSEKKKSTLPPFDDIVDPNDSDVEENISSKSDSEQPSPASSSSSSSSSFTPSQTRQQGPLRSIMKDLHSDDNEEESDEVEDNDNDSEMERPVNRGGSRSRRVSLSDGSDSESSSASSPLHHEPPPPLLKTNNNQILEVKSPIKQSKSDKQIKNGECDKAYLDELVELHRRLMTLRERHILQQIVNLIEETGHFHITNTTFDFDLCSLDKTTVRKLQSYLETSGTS
rRNA inh HTS: reduced GFP signal of wild-type E. coli, primary screen, bacterial rRNA inhibitor project, GFP/RFP fluorescence, OD600, single point | E. coli WT GFP vs humanized-ribosome RFP mutants, 24 h; active compounds read low; DMSO median 0, no signal -100 | GFP signal change (wild-type ribosome), % (no concentration beside the values) | hit rate 1.6% among 350,000 | AID 720706, 2013;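 active = significant combined selectivity score with lowered wild-type GFP, culture density cut under 30%, mutant RFP and density less affected; inactive = any of these conditions unmet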; note: one replicate is shown; some compounds called inactive have numbers as strong as hits
rRNA inh HTS OD600: second read-out of rRNA inh HTS, no call of its own (marks repeat the call); OD600 change, %; measured here: OD600 growth;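 optical density of the mix in the first replicate; 0 = DMSO median and -100 = no signal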
rRNA inh HTS RFP: also measured in rRNA inh HTS; calls as there; RFP signal change, %; measured here: RFP humanized mutant strains;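 first replicate; 0 = DMSO median and -100 = no signal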
* hit, by the source's call; i = inactive; & = joins results of further samples.

SMILES	FGF22 binding	AF4-AF9 inh	rRNA inh HTS	rRNA inh HTS OD600	rRNA inh HTS RFP
Cc1ccc(S(=O)(=O)N(C)C[C@H]2Oc3ccc(NC(=O)Nc4ccc(C(F)(F)F)cc4)cc3C(=O)N([C@@H](C)CO)C[C@H]2C)cc1	i	0.5	1	6	-0.3
Cc1noc(C)c1NC(=O)Nc1ccc2c(c1)C(=O)N([C@@H](C)CO)C[C@H](C)[C@@H](CN(C)Cc1ccc(C(F)(F)F)cc1)OCCCC[C@H](C)O2	i	3.1	0	-9	0.8
CC(C)CC#Cc1ccc2c(c1)O[C@@H](CN(C)S(=O)(=O)c1ccc(F)cc1)[C@H](C)CN([C@H](C)CO)S2(=O)=O	i	2.1	1	10	-0.1
O=C(C[C@@H]1C=C[C@H](NC(=O)C2CCC2)[C@H](CO)O1)NCc1ccccc1Cl	i	-9.5	0	-4	-1.0
COCC(=O)Nc1ccc2c(c1)[C@@H]1C[C@H](CC(=O)NCc3ccccc3F)O[C@H](CO)[C@@H]1O2	i	0.5	-1	8	-0.6
C[C@@H]1CN([C@H](C)CO)C(=O)c2cc(NC(=O)CCN3CCOCC3)ccc2O[C@@H]1CN(C)Cc1ccncc1	i	-2.2	1	2	0.4
CN1C(=O)c2cc(NC(=O)c3ccccc3)ccc2OC[C@H]2O[C@@H](CC(=O)NCC3CC3)CC[C@H]21	i	-1.9	1	-5	1.0
Cc1noc(C)c1NC(=O)Nc1ccc2c(c1)C(=O)N([C@H](C)CO)C[C@@H](C)[C@@H](CN(C)C(=O)Nc1ccc3c(c1)OCO3)OCCCC[C@@H](C)O2	i	1.6	-41*	18*	2.9*
CNC(=O)C[C@H]1C(=O)N(Cc2ccccc2)C[C@@H]1CSC	i	-2.9	5	3	-1.7
COCC(=O)Nc1ccc2c(c1)OC[C@@H](C)N(Cc1ccccn1)C[C@@H](C)[C@H](OC)CN(C)C2=O	i	-7.3	1	-1	1.0
C[C@@H]1CN([C@H](C)CO)C(=O)c2cc(N(C)C)ccc2O[C@H]1CN(C)Cc1ccc(Oc2ccccc2)cc1	i	40*	-2	-53	31
CCCN(C)C[C@H]1OCCCC[C@@H](C)Oc2ccc(NC(=O)NC(C)C)cc2C(=O)N([C@@H](C)CO)C[C@H]1C	i	9.4	2	0	-0.6
O=C(C[C@@H]1C[C@@H]2c3cc(NC(=O)c4ccc5c(c4)OCO5)ccc3O[C@@H]2[C@H](CO)O1)NCc1cccnc1	i	-0.2	-1	-2	0.4
C[C@@H]1CN([C@@H](C)CO)S(=O)(=O)c2ccc(Br)cc2O[C@H]1CN(C)C	i	-2.7	1	0	-3.2
Cc1noc(C)c1NC(=O)Nc1ccc2c(c1)C(=O)N([C@@H](C)CO)C[C@H](C)[C@H](CN(C)S(=O)(=O)c1ccc(Cl)cc1)OCCCC[C@@H](C)O2	i	-0.1	-1	0	0.1
O=C(c1ccc(F)cc1)N1CCCCN2[C@@H](CO)[C@@H](c3ccc(/C=C/c4ccccc4)cc3)[C@@H]2C1	i	16	-59	-73	-18
O=C(Nc1ccc(F)cc1)N1CCCCN2[C@@H](CO)[C@@H](c3ccc(C#CC4CC4)cc3)[C@@H]2C1	i	12	-59	-77	-15
CC(C)(C)OC(=O)N[C@@H]1C=CC(=O)C1	i	-2.7	10	26	-1.5
O=C(C[C@H]1C[C@H]2c3cc(NC(=O)c4ccc5c(c4)OCO5)ccc3O[C@H]2[C@@H](CO)O1)NCc1cccnc1	i	-5.6	-3	12	-1.6
C[C@H](CO)N1C[C@H](C)[C@@H](CN(C)C(=O)c2ccccc2)OCCCC[C@H](C)Oc2ccc(NC(=O)Nc3ccc(F)cc3)cc2C1=O	i	-11	-2	-7	0.1
COc1ccccc1N1CCN(CCS(=O)(=O)c2cc(Cl)ccc2Cl)CC1	i	2.7	-9	-24	1.7
CCCN1[C@@H]2Cn3c(ccc(-c4ccc(F)cc4)c3=O)[C@H]1[C@@H](C(=O)NCC1CC1)[C@@H]2CO	i	-2.6	-1	1	-3.2
C[C@H]1CN([C@@H](C)CO)C(=O)c2cc(C#Cc3ccccc3F)cnc2O[C@@H]1CN(C)S(C)(=O)=O	i	-1.9	0	7	3.3
Cc1noc(C)c1C(=O)N(C)C[C@@H]1OCc2ccccc2-c2c(n(C)c3ccccc23)C(=O)N([C@H](C)CO)C[C@H]1C	i	-0.1	2&2	2&2	-0.1&-1.8
COC(=O)[C@]12C[C@H](CC(=O)NCC3CCCCC3)C(=O)N(CCC3=CCCCC3)C1=C[C@H](COCc1ccccc1)O[C@@H]2C	i	-3.0	8	-5	3.4
C[C@H](CO)N1C[C@H](C)[C@@H](CN(C)C(=O)NC2CCCC2)Oc2ncc(C#CC3CCCCC3)cc2C1=O	i	5.0	3	-16	3.0
COc1ccc(S(=O)(=O)N2C[C@H](O)COC[C@H]3O[C@@H](CC(=O)N(C)C)CC[C@@H]32)cc1	i	-1.2	0	0	-0.7
O=C(O)CN=C(Nc1cc(Cl)cc(Cl)c1)NC(c1ccccc1)c1ccccc1	i	-0.8	-26	-43	35
CCCNC(=O)C1(C)CCCN(CC(=O)c2ccc3c(c2)OCCO3)C1 (centres undefined)	i	1.3	8	9	-2.1
C[C@H](CO)N1C[C@H](C)[C@H](CN(C)Cc2ccc(Oc3ccccc3)cc2)Oc2c(NC(=O)Nc3ccc(F)cc3)cccc2C1=O	i	4.6	-1	-18	3.2
Cc1ccc(S(=O)(=O)Nc2ccc3c(c2)C(=O)N([C@H](C)CO)C[C@@H](C)[C@H](CN(C)Cc2ccc4c(c2)OCO4)OCCCC[C@H](C)O3)cc1	i	4.1	0	-23	7.3
Cc1cc2nc(-c3ccco3)c(Cc3cccc(Cl)c3)n2c(C)c1Br	i	-1.1	-1	11	2.5
O=C(C[C@@H]1C[C@@H]2c3cc(NC(=O)Nc4ccccc4F)ccc3O[C@@H]2[C@H](CO)O1)NCc1ccc(Oc2ccccc2)cc1	i	-1.6	-5	1	-0.1
COCC#Cc1cnc2c(c1)C(=O)N([C@H](C)CO)C[C@@H](C)[C@H](CN(C)C(=O)Nc1ccccc1OC)O2	i	-12	2	14	-1.7
COc1ccc(-c2ccc3c(c2)O[C@H](CN(C)Cc2ccccc2C(=O)O)[C@H](C)CN([C@@H](C)CO)S3(=O)=O)cc1	i	1.2	-3	-2	-0.5
Cc1noc(C)c1NC(=O)N(C)C[C@@H]1Oc2c(NC(=O)C3CC3)cccc2C(=O)N([C@H](C)CO)C[C@@H]1C	i	-1.9	1	3	-1.5
COc1ccc(NC(=O)N(C)C[C@H]2OCc3cnnn3CCCC(=O)N([C@H](C)CO)C[C@@H]2C)cc1	i	0.1&-1.4&-3.6	7&-1	14&2	2.2&-1.5
Cc1noc(C)c1S(=O)(=O)Nc1ccc2c(c1)C(=O)N([C@@H](C)CO)C[C@H](C)[C@@H](CN(C)C(=O)Nc1cccc3ccccc13)O2	i	-2.5	4	6	0.5
O=C(C[C@H]1CC[C@@H]2[C@H](COC[C@@H](O)CN2C(=O)Nc2ccc(Cl)c(Cl)c2)O1)NC1CCC1	i	0.2	-54	-73	-13
C[C@H]1CN([C@@H](C)CO)C(=O)c2cc(NC(=O)Cn3cnnn3)ccc2O[C@@H]1CN(C)Cc1ccc(-c2ccccc2)cc1	i	0.3	0	1	0.8
O=C(N[C@H]1CC[C@H](CC(=O)N2CCc3ccccc3C2)O[C@H]1CO)C1CC1	i	-5.6	-2	-4	-0.4
COC(=O)[C@H]1[C@H](CO)[C@H]2Cn3c(ccc(/C=C/c4ccccc4)c3=O)[C@H]2N1C(=O)c1cnccn1	i	1.5	-2	0	0.1
OC[C@@H]1CN(Cc2ccccc2)C[C@H](n2cnc3c(N4CCN(c5ccccc5)CC4)ncnc32)O1	i	3.5	-13	-21	3.0
C[C@@H]1CN([C@@H](C)CO)C(=O)c2cc(/C=C/c3ccccc3)cnc2O[C@H]1CN(C)C(=O)Nc1ccccc1F	i	10.0	-1	1	3.9
C[C@@H]1CN([C@@H](C)CO)C(=O)c2cc(NC(=O)c3ccccc3)ccc2O[C@@H](C)CCCCO[C@@H]1CN(C)Cc1ccncc1	i	-1.0	-3	-5	-0.4
COC(=O)[C@]12C[C@H](CC(=O)NCCCCc3ccccc3)C(=O)N(CCC3=CCCCC3)C1=C[C@H](C(C)(C)C)O[C@@H]2C	i	-1.0	20	4	3.1
C[C@@H]1CN([C@@H](C)CO)C(=O)c2cc(N(C)C)ccc2O[C@@H]1CN(C)Cc1ccc(-c2ccccc2)cc1	i	48*	-55	-76	-16
CC(C)NC(=O)N(C)C[C@H]1Oc2ccc(NC(=O)C3CCCCC3)cc2C(=O)N([C@@H](C)CO)C[C@H]1C	i	-2.7	-2	-4	-4.3
COc1ccccc1-c1cnc2c(c1)C(=O)N([C@@H](C)CO)C[C@H](C)[C@H](CN(C)Cc1ccccc1)O2	i	-0.9	0	10	-0.7
C[C@H](CO)N1C[C@H](C)[C@@H](CN(C)Cc2ccc(C(=O)O)cc2)OCCCC[C@H](C)Oc2ccc(NC(=O)c3ccncc3)cc2C1=O	i	-2.9	1	3	-0.1
CN(C)CCCNC(=O)[C@H]1[C@H](CO)[C@H]2Cn3c(ccc(-c4cccc(F)c4)c3=O)[C@@H]1N2C	i	-0.3	1	8	0.6
CC1(C(=O)NS(=O)(=O)c2ccc(C#N)cc2)CCN1C(=O)CCC1CCCC1 (centres undefined)	i	-2.8	6	12	-4.5
CN(C)C(=O)C[C@@H]1C=C[C@H](NC(=O)C2CC2)[C@@H](CO)O1	i	-2.2	4	-3	-0.6
C[C@H]1CN([C@@H](C)CO)C(=O)c2cc(NC(=O)Nc3ccc(F)cc3)ccc2O[C@@H]1CN(C)Cc1ccc(C(=O)O)cc1	i	-2.9	1	9	0.4
CCCNC(=O)N(C)C[C@H]1Oc2cc(C#CCOC)ccc2S(=O)(=O)N([C@@H](C)CO)C[C@H]1C	i	-1.4	-1	4	-2.4
COc1ccc(S(=O)(=O)Nc2ccc3c(c2)C(=O)N([C@@H](C)CO)C[C@H](C)[C@@H](CN(C)S(C)(=O)=O)OCCCC[C@@H](C)O3)cc1	i	-3.5	3	3	5.7
C[C@@H]1CN([C@@H](C)CO)C(=O)Cc2cc(NS(=O)(=O)c3ccccc3)ccc2O[C@H]1CN(C)CC1CC1	i	0.6	5	1	-2.4
C[C@@H]1CCCCO[C@H](CN(C)CC2CCCCC2)[C@H](C)CN([C@@H](C)CO)C(=O)c2cc(NC(=O)Nc3cccc4ccccc34)ccc2O1	i	10	-53*	-42*	-7.4*
C[C@@H]1CN([C@@H](C)CO)C(=O)c2cc(Br)cnc2O[C@@H]1CN(C)C(=O)c1cccnc1	i	-0.2	7	8	-2.2
O=S(=O)(c1cccs1)N1CCCCN2[C@H](CO)[C@H](c3ccc(/C=C/c4ccccc4)cc3)[C@@H]2C1	i	3.1	-2	15	0.0
COc1ccc(NC(=O)Nc2ccc3c(c2)CC(=O)N([C@@H](C)CO)C[C@@H](C)[C@H](CN(C)S(=O)(=O)c2c(C)noc2C)O3)cc1	i	9.5	-4	-2	1.4
CCC(=O)Nc1ccc2c(c1)OC[C@H](C)N(C(=O)c1ccncc1)C[C@@H](C)[C@H](OC)CN(C)C2=O	i	-1.8	-1	5	-4.0
C[C@@H]1CN([C@H](C)CO)C(=O)c2cc(NS(C)(=O)=O)ccc2O[C@@H](C)CCCCO[C@H]1CN(C)C(=O)C1CCCCC1	i	-5.4	-1	7	0.3

Molecules above with an aryl methoxy group, in the order listed:
SMILES	FGF22 binding	AF4-AF9 inh	rRNA inh HTS	rRNA inh HTS OD600	rRNA inh HTS RFP
COc1ccccc1N1CCN(CCS(=O)(=O)c2cc(Cl)ccc2Cl)CC1	i	2.7	-9	-24	1.7
COc1ccc(S(=O)(=O)N2C[C@H](O)COC[C@H]3O[C@@H](CC(=O)N(C)C)CC[C@@H]32)cc1	i	-1.2	0	0	-0.7
COCC#Cc1cnc2c(c1)C(=O)N([C@H](C)CO)C[C@@H](C)[C@H](CN(C)C(=O)Nc1ccccc1OC)O2	i	-12	2	14	-1.7
COc1ccc(-c2ccc3c(c2)O[C@H](CN(C)Cc2ccccc2C(=O)O)[C@H](C)CN([C@@H](C)CO)S3(=O)=O)cc1	i	1.2	-3	-2	-0.5
COc1ccc(NC(=O)N(C)C[C@H]2OCc3cnnn3CCCC(=O)N([C@H](C)CO)C[C@@H]2C)cc1	i	0.1&-1.4&-3.6	7&-1	14&2	2.2&-1.5
COc1ccccc1-c1cnc2c(c1)C(=O)N([C@@H](C)CO)C[C@H](C)[C@H](CN(C)Cc1ccccc1)O2	i	-0.9	0	10	-0.7
COc1ccc(S(=O)(=O)Nc2ccc3c(c2)C(=O)N([C@@H](C)CO)C[C@H](C)[C@@H](CN(C)S(C)(=O)=O)OCCCC[C@@H](C)O3)cc1	i	-3.5	3	3	5.7
COc1ccc(NC(=O)Nc2ccc3c(c2)CC(=O)N([C@@H](C)CO)C[C@@H](C)[C@H](CN(C)S(=O)(=O)c2c(C)noc2C)O3)cc1	i	9.5	-4	-2	1.4

Some of the compounds tested; count on the stated rates, not on these rows.
